PrP 5UTR inh – inhibition of PrP 5' UTR reporter expression. cell-based PrP 5' UTR mRNA reporter, plate reader. inhibition, % (concentration not given with the values). hit rate 0.35% among 340,000;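 active means every replicate at 50% or more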;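 further: 0 = median of the neutral control wells; tested in H4 reporter cells; numbers are from one replicate; inactives centre near -14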
Sa RN4220 lethal – kills Staphylococcus aureus RN4220. S. aureus RN4220 growth, OD600, 16 h. inhibition, % (concentration not given with the values). hit rate 0.33% among 330,000. AID 1259311;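 active means z-score of -3 or lower and OD600 up to 0.18 on both plates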;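 further: plate controls were untreated cells for no effect and reference antibiotic for full effect; stock transfer was 100 nL into about 80 µL; one replicate is shown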
Mtb hypoxia rep – Mtb hypoxia fluorescent reporter inhibition | M. tuberculosis hypoxia-regulated fluorescent reporter, fluorescence | fluorescence inhibition, % (no concentration beside the values) | hit rate 0.1% among 300,000;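 active means 35 to 45% if threefold the growth effect, above 45% if 1.5-fold the growth effect; inactive means the rest, general growth blockers included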;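 further: wells of about 50 µL received 100 nL stock; 0% = vehicle wells and 100% = reference inhibitor wells; whole bacteria with a GFP reporter of the hypoxia response; strong numbers were not always called active; many hits fall short of the cut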
Sa ugtP lethal – compounds lethal to S. aureus RN4220 ugtP deletion mutant | growth inhibition, % (concentration not given with the values) | OD600 growth, 16 h; some inactives read as strong as hits | hit rate 0.54% among 330,000;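 active means z-score under -3 and OD600 up to 0.15 on both plates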;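 further: plate controls were untreated wells for no effect and antibiotic for full effect; wells of about 80 µL received 100 nL stock; the first replicate is given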
Bead autofluor – counter-screen for toxin protease inhibitors: compound fluorescence; compound autofluorescence counterscreen, microsphere flow cytometry; active compounds read high; fluorescence intensity (no concentration beside the values); hit rate 3.1% among 360,000;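 active means at least 3 SD above the mean of all compounds, about 16000 in these data; inconclusive means too few beads counted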;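 further: 100 nL of 1 mM stock went into each well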
BJeLR lethal – kills HRASV12-expressing BJeLR cells; BJeLR (HRASV12) viability, CellTiter-Glo ATP luminescence, 48 h; reference of the scale not given here; inhibition, % (no concentration beside the values); hit rate 0.17% among 300,000; AID 1554;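 active means replicate mean above 50%; inconclusive means above 50% but judged a plate artefact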;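 further: 50 nL library stock added to about 25 µL; numbers are from one replicate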
Mtb hypoxia rep growth – second read-out of Mtb hypoxia rep, no call of its own (marks repeat the call); growth inhibition, %; measured here: M. tuberculosis growth (absorbance);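 0% = vehicle and 100% = reference antibiotic; read after six days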
An asterisk follows results filed as active; ? = inconclusive; · = not tested or not shown.

Letters – A = PrP 5UTR inh; B = Sa RN4220 lethal; C = Mtb hypoxia rep; D = Mtb hypoxia rep growth; E = Sa ugtP lethal; F = Bead autofluor; G = BJeLR lethal
1) CCc1ccc(N(C(=O)Cn2nnc(-c3ccccc3)n2)C(C(=O)NC2CCCCC2)c2ccccn2)cc1 (stereo not drawn)
  A = -16 | B = 2.6 | C = 5 | D = 3 | E = -2 | F = 2432 | G = 3

2) CCOC(=O)N1CCN(C(=O)CN(c2ccccc2)S(C)(=O)=O)CC1
  A = -17 | B = 0.1 | C = 14 | D = 1 | E = -1 | F = 4004 | G = -1

3) COc1ccc(C(=O)c2ccc(C)cc2)c(OC)c1OC
  A = -31 | B = 4.0 | C = 11 | D = 7 | E = 9 | F = 3357 | G = ·

4) O=C1/C(=C/c2ccc([N+](=O)[O-])cc2)CCC1C1CCCC1 (stereo not drawn)
  A = -21 | B = -1.3 | C = 11 | D = 4 | E = -1 | F = 2813 | G = 3

5) O=[N+]([O-])c1cccc2c(S(=O)(=O)N3CCCCC3)cccc12
  A = -5 | B = 7.3 | C = 3 | D = 4 | E = 4 | F = 2834 | G = 6

6) Cc1c(C(=O)N2CCC[C@H]2CO)oc2c(F)cccc12
  A = -26 | B = 0.8 | C = -2 | D = -1 | E = 4 | F = 3169 | G = 2

7) Nc1c(NC=O)c(=O)n(Cc2ccccc2)c(=O)n1Cc1ccccc1
  A = -4 | B = 3.8 | C = 15 | D = 4 | E = 2 | F = 5898 | G = -10

8) CCOc1ccc(C(C)=O)cc1COc1ccc(-c2nnco2)cc1
  A = -25 | B = 1.4 | C = 7 | D = 8 | E = 2 | F = 5010 | G = 5

9) O=C(N/N=C/c1cn(-c2ccccc2)nc1-c1cccs1)c1ccccc1F
  A = -32 | B = · | C = · | D = · | E = · | F = 2352 | G = 0

10) CC1Cc2ccccc2N1C(=O)CN1CCCCC1 (stereo not drawn)
  A = -12 | B = 0.2 | C = 7 | D = -6 | E = 2 | F = 3845 | G = -4

11) O=C(CSc1nnc(C2CC2)n1C1CC1)c1ccc(Br)s1
  A = -33 | B = 4.8 | C = 15 | D = 15 | E = -26 | F = 3974 | G = ·

12) N/C(=N\S(=O)(=O)c1cc(C(F)(F)F)cc(C(F)(F)F)c1)c1ccccc1
  A = -26 | B = -2.3 | C = 6 | D = 9 | E = -4 | F = · | G = -1

13) O=C(Nc1c2c(nn1-c1ccc(F)cc1)CS(=O)(=O)C2)C1CCCC1
  A = -12 | B = 1.0 | C = 7 | D = 4 | E = 7 | F = 4476 | G = -1

14) O=C(Nc1ccc(Cl)c(Cl)c1)OCc1cccnc1
  A = -39 | B = 100* | C = 9 | D = 8 | E = 100* | F = 8668 | G = -4

15) CC(=O)C1C(c2cn(-c3ccccc3)nc2-c2cccs2)NC(=O)NC1(O)C(F)(F)F (stereo not drawn)
  A = -7 | B = 0.1 | C = -2 | D = -2 | E = 15 | F = 2537 | G = 0

16) C#CCNCCS(=O)(=O)N(Cc1ccc(Br)cc1)[C@@H](CC(C)C)C(=O)O
  A = 1 | B = -2.3 | C = 3 | D = 6 | E = 0 | F = 3476 | G = ·

17) CC(=O)Nc1cccc(NC(=O)C(=O)c2cn(CC(=O)N3CCCCC3)c3ccccc23)c1
  A = -42 | B = -0.2 | C = -4 | D = -2 | E = 2 | F = 4862 | G = 16

18) O=C(CNC(=O)c1ccc(S(=O)(=O)N2CCCC2)cc1)NN=Cc1ccc(Cl)cc1
  A = · | B = 7.3 | C = 0 | D = 7 | E = -2 | F = · | G = ·

19) Cc1cc(S(=O)(=O)N2CCN(C(=O)c3ccco3)CC2)ccc1F
  A = -24 | B = 1.0 | C = 8 | D = -3 | E = 1 | F = 4006 | G = -1

20) CCNC(=O)NC(=O)CSc1ccc(S(=O)(=O)N2CCCCC2)cn1
  A = -6 | B = -1.1 | C = 2 | D = 0 | E = 4 | F = 3925 | G = ·

21) COc1cc(NC(=O)c2ccccc2)c(OC)cc1NC(=O)Cc1ccc(F)cc1
  A = 5 | B = 11 | C = -1 | D = -6 | E = 1 | F = 3958 | G = 1

22) CCOCCCNC(=O)c1cc2c(=O)n3cccc(C)c3nc2n1C
  A = -8 | B = 4.4 | C = 2 | D = 1 | E = 3 | F = 4293 | G = 21

23) Cc1ccc(C(=O)NCC(=O)N2CCN(c3ncccn3)CC2)s1
  A = -21 | B = 5.6 | C = 9 | D = 14 | E = 7 | F = 4889 | G = -1

24) COc1cccc(C2CN(c3ccc(F)cc3F)N=C2c2cccs2)c1OC (stereo not drawn)
  A = -11 | B = -14 | C = 4 | D = 4 | E = 88* | F = 8244 | G = -11

25) Cc1ccc2cc3cc(C(=O)NCCCN4CCc5ccccc5C4)oc3nc2c1
  A = 0 | B = -4.7 | C = · | D = · | E = -1 | F = 4552 | G = 2

Other results follow.
No.	Compound	PrP 5UTR inh	Sa RN4220 lethal	Mtb hypoxia rep	Mtb hypoxia rep growth	Sa ugtP lethal	Bead autofluor	BJeLR lethal
26	CCn1ccnc1CN(C)Cc1cn(C)nc1-c1ccccc1F	-20	-1.1	6	9	1	2585	3
27	CC/C(=N\NC(N)=O)c1ccc(OC(F)F)cc1	0	·	·	·	·	?	22
28	Cc1cccnc1NC(=S)NC(=O)c1oc2ccccc2c1C	-116	4.7	-9	-1	-5	5585	-9
29	COc1ccc(CN2CCNC(=O)C2CC(=O)NCC2CCOCC2)cc1C (stereo not drawn)	-27	·	·	·	·	5746	-2
30	Cc1[nH]c2ccccc2c1/C=N/Nc1nc2ccccc2[nH]1	-32	·	·	·	·	3194	-4
31	O=S(=O)(Cc1ccccc1)N1CCN(C2Cc3ccccc3C2)CC1	-24	4.4	6	2	0	3103	-16
32	COc1cc([N+](=O)[O-])cc(/C=N/NC(=O)c2ccc(NC(=O)c3ccc(C)cc3)cc2)c1O	25	·	·	·	·	4559	2
33	O=C(O)CSCC(=O)Nc1ccc(-c2nc3ccccc3s2)cc1	-69	·	·	·	·	4243	-13
34	COc1cccc(NC(=O)C2CCCN2C(=O)Nc2ccccc2F)c1 (stereo not drawn)	-28	4.9	0	5	6	10988	1
35	CC(Oc1ccc(Cl)cc1Cl)C(=O)NNC(=O)c1cccnc1 (stereo not drawn)	-13	3.0	-3	1	4	4207	4
36	COc1ccc(/C=C/C(=O)Oc2ccc(C)cc2)cc1	-20	8.8	-3	-2	20	3679	1
37	O=[N+]([O-])c1ccccc1S(=O)(=O)NC1CC2CCC1C2 (stereo not drawn)	-23	7.2	14	16	5	3247	3
38	Cc1nc(Cl)sc1C(=O)Nc1ccc(C(F)(F)F)cc1	7	-3.8	-4	6	0	3290	1
39	Cc1ccc(NC(=S)N2CCC(NC(=O)c3cccc(F)c3)CC2)cc1	-16	1.5	2	-1	-1	5894	-12
40	Cc1ccc(-n2c(SCC(=O)N3CCCc4ccccc43)nnc2-c2cccnc2)c(C)c1	-21	8.8	1	6	-10	26671*	-1
41	COc1ccccc1N(CC(=O)N1CCOCC1)S(C)(=O)=O	-14	2.4	8	8	10	3296	1

Gathered by group: the entries above containing a CF3 group
No.	Compound	PrP 5UTR inh	Sa RN4220 lethal	Mtb hypoxia rep	Mtb hypoxia rep growth	Sa ugtP lethal	Bead autofluor	BJeLR lethal
12	N/C(=N\S(=O)(=O)c1cc(C(F)(F)F)cc(C(F)(F)F)c1)c1ccccc1	-26	-2.3	6	9	-4	·	-1
15	CC(=O)C1C(c2cn(-c3ccccc3)nc2-c2cccs2)NC(=O)NC1(O)C(F)(F)F (stereo not drawn)	-7	0.1	-2	-2	15	2537	0
38	Cc1nc(Cl)sc1C(=O)Nc1ccc(C(F)(F)F)cc1	7	-3.8	-4	6	0	3290	1

More compounds
No.	Compound	PrP 5UTR inh	Sa RN4220 lethal	Mtb hypoxia rep	Mtb hypoxia rep growth	Sa ugtP lethal	Bead autofluor	BJeLR lethal
42	CC1CC1c1ccc(/C=C(\C#N)C(=O)Nc2ccc(Cl)cc2)o1 (stereo not drawn)	-141	0.4	21	11	-10	2835	7
43	CC(=O)Nc1cccc(C(=O)/C=C/c2ccc(C)cc2)c1	-44	8.8	13	10	-3	2514	-8
44	Cc1ccc(NC(=O)CSc2nc(N)cc(N)n2)cc1S(=O)(=O)N1CCOCC1	-14	2.9	17	3	7	4464	-8
45	CC1CN(C(=O)c2cc3c(s2)CCC3)CC(C)O1 (stereo not drawn)	-18	0.8	5	13	2	9410	-9
46	CSCCC(NC(=O)c1ccccc1)C(=O)NNC(=O)c1ccccc1 (stereo not drawn)	-28	4.1	5	-6	3	4608	·
47	CCCCn1c(N)c(N(CCC(C)C)C(=O)c2ccc(-c3ccc([N+](=O)[O-])cc3)o2)c(=O)[nH]c1=O	3	9.0	8	4	6	3883	·
48	CC12CCC(=O)N1C(C(=O)Nc1nc3ccc(Cl)cc3s1)CS2 (stereo not drawn)	4	7.5	-3	-6	8	4376	10
49	Cc1ccc(C(=O)c2cc([N+](=O)[O-])ccc2N2CCOCC2)cc1	2	·	·	·	·	2505	5
50	N#CC(NC(=O)OCc1ccccc1)c1ccccc1 (stereo not drawn)	-17	6.2	6	6	1	4066	1
51	O=C(N/N=C/c1cccnc1)c1ccc(F)cc1	-20	·	·	·	·	2955	3
52	CCC(C)N(C(=O)CN1C(=O)NC2(CCc3ccccc32)C1=O)C1CCS(=O)(=O)C1 (stereo not drawn)	-11	0.0	-7	0	-3	3003	·
53	COC(=O)C1=CN(C2CC2)C=C(C(=O)OC)C1c1ccc(C(F)(F)F)cc1	-11	3.0	0	-5	0	2710	9
54	O=C(O)C1CCC(c2ccc(-c3ccccc3)cc2)CC1 (stereo not drawn)	-22	6.6	-4	-2	-6	3048	-6
55	Cc1cc(C)c(C)c(S(=O)(=O)N2CCN(C(=O)c3ccco3)CC2)c1C	·	5.6	2	-6	14	6000	-9
56	CCCC/C=C/C(NC(=O)c1ccc(C(=O)OC)cc1)c1ccccc1 (stereo not drawn)	-19	·	·	·	·	3550	17
57	CCN(CC)S(=O)(=O)c1ccc(NC(=O)C2CCCO2)cc1 (stereo not drawn)	-1	5.2	9	1	9	8158	4
58	COc1ccccc1CCC(=O)OCc1csc(CC(=O)Nc2ccccc2C)n1	-20	1.4	-3	3	11	4657	-9
59	O=C(c1ccco1)N1CCN(Cc2nnnn2CCc2ccccc2)CC1	-2	4.0	15	9	3	4639	2
60	O=[N+]([O-])c1ccc(S(=O)(=O)N(CCCN2CCOCC2)Cc2cccs2)cc1	-11	17	-2	12	16	7431	3
61	COC(=O)c1ccc(NC(=O)CCN2CCN(CCC(=O)Nc3ccc(C(=O)OC)cc3)CC2)cc1	-12	-1.7	·	·	1	4921	7
62	O=S(=O)(c1ccccc1)N1CCN2CCCC2C1 (stereo not drawn)	-21	3.7	2	-1	9	4100	-7
63	CN(C)S(=O)(=O)c1ccc(NC(=O)c2ccc(Br)o2)cc1	·	1.7	2	15	-2	10766	1
64	CC(C)Cc1cc(C(=O)NCCc2ccccc2)no1	-52	-6.0	19	23	1	6558	7
65	COC(=O)C1=C(C)NC(=O)NC1c1ccc(OCC(=O)N2CCCCC2)cc1 (stereo not drawn)	-13	0.4	·	·	12	2850	13
66	Nc1[nH]c(=O)[nH]c(=O)c1N=Nc1ccccc1Cl	3	7.4	-11	-13	-4	4640	-6
67	N#CC1=C(N)n2c(s/c(=C\c3ccco3)c2=O)=C(C#N)C1c1ccco1 (stereo not drawn)	-24	·	·	·	·	8033	2
68	Cc1cc(C)nc(NC(=O)c2cccc(Br)c2)n1	-8	0.4	-1	-4	1	2950	1

Profiles, looked up by structure. Order of screens: PrP 5UTR inh, Sa RN4220 lethal, Mtb hypoxia rep, Mtb hypoxia rep growth, Sa ugtP lethal, Bead autofluor, BJeLR lethal
Results for `COc1ccccc1CCC(=O)OCc1csc(CC(=O)Nc2ccccc2C)n1` = -20, 1.4, -3, 3, 11, 4657, -9
Results for `N#CC1=C(N)n2c(s/c(=C\c3ccco3)c2=O)=C(C#N)C1c1ccco1` (stereo not drawn) = -24, ·, ·, ·, ·, 8033, 2

From PubChem
